Sa growth inh = S. aureus growth inhibition. S. aureus RN4220 growth, OD600, 20 h, 42 °C; stronger effect = lower value. relative growth, % (concentration not given with the values). 170,000 compounds, 0.53% hits;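 active = growth at 42 °C up to 50% and 20 or more points under that at 30 °C, or under 10% at both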;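 note: 300 nL library stock went into each well; scaled to the means of positive and negative controls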
GIV Gai3 FP = inhibitors of GIV GBA-motif binding to rat Galpha-i3; P08753; Galpha-i3/FITC-GIV peptide fluorescence polarization, 90 min; stronger effect = lower value; scaled: aluminum fluoride 0%, vehicle 100%; percent of control (FP), % (concentration not given with the values); 210,000 compounds, 0.42% hits;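 active = replicate mean at 85% of control or lower, very high polarization wells dropped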;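 note: wells of about 15 µL received 100 nL stock; the first replicate is given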
Target sequence (P08753 whole entry, looked up): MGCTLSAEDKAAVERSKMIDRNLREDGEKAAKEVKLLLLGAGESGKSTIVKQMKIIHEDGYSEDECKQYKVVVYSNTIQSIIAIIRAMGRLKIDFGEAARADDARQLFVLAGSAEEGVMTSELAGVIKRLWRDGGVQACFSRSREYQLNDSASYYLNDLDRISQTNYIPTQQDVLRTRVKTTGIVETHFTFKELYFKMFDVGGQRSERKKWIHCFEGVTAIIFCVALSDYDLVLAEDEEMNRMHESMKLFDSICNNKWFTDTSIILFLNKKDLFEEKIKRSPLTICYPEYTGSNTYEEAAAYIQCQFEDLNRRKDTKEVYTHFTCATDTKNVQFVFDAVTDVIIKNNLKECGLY
HCMV NEC inh = disrupts HCMV UL50-UL53 complex binding. HTRF UL50-UL53 interaction, normalized percent inhibition. inhibition, % (no concentration beside the values). 190,000 compounds, 0.15% hits;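 active = both replicates at 50% or more, plus weaker picks with an unusually low signal ratio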;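 note: stock transfer was 100 nL into about 20 µL; 0% = negative control wells and 100% = wells with untagged competitor protein; inactives centre near -12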
Sa growth inh second temp = recorded beside Sa growth inh, whose call it bears; relative growth, %; measured here: growth at 30 °C;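 optical density after 20 h as mean of two plates; 100% = untreated growth and lower means inhibition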
Numbers without * were called inactive; nt = not tested or not shown.

A first look:
SMILES | Sa growth inh | Sa growth inh second temp | GIV Gai3 FP | HCMV NEC inh
Cc1cn2c(=O)cc(COC(=O)c3ccc(NC(=O)c4ccc(C(C)(C)C)cc4)cc3)nc2s1 | 73 | 88 | 99 | nt
COc1cc(C(=O)O)ccn1 | 117 | 76 | 98 | -1
Cn1c(O)c(/C=N/N(c2ccccc2)c2ccccc2)c2ccccc21 | 104 | 88 | nt | -22
Cc1cc(C)n(-c2nc(-c3ccccc3)nc3c2COC(C)(C)C3)n1 | 90 | 80 | 104 | nt
COc1cccc(CNc2nccn(-c3cc(C)cc(C)c3)c2=O)c1 | 111 | 91 | 101 | nt

The list itself, from the first entry:
SMILES | Sa growth inh | Sa growth inh second temp | GIV Gai3 FP | HCMV NEC inh
Cc1cn2c(=O)cc(COC(=O)c3ccc(NC(=O)c4ccc(C(C)(C)C)cc4)cc3)nc2s1 | 73 | 88 | 99 | nt
COc1cc(C(=O)O)ccn1 | 117 | 76 | 98 | -1
Cn1c(O)c(/C=N/N(c2ccccc2)c2ccccc2)c2ccccc21 | 104 | 88 | nt | -22
Cc1cc(C)n(-c2nc(-c3ccccc3)nc3c2COC(C)(C)C3)n1 | 90 | 80 | 104 | nt
COc1cccc(CNc2nccn(-c3cc(C)cc(C)c3)c2=O)c1 | 111 | 91 | 101 | nt
O=C(Cn1nnc(N2CCOCC2)n1)c1ccccc1 | 86 | 90 | 104 | -42
N#CC1=C(N)Oc2n[nH]c(-c3ccc4c(c3)OCO4)c2C1c1ccccc1Br (stereo not drawn) | nt | nt | 99 | -8
COc1ccc(-c2nc3c4ccccc4n(CC(=O)N4CCN(c5ccccc5F)CC4)c(=O)n3n2)cc1 | 96 | 98 | 97 | nt
O=C(/C=C/c1cn(-c2ccccc2)nc1-c1ccccc1)OCC(=O)N1CCN(C(=O)c2ccco2)CC1 | 102 | 83 | nt | 2
CCOC(=O)c1c(C)oc2nc(C)nc(N3CCN(c4ccc(C(C)=O)cc4)CC3)c12 | 102 | 86 | 108 | nt
O=C(CN1C(=O)CSC1=O)Nc1cccc(Cl)c1 | 111 | 98 | 104 | 2
O=C(c1cc2nc3c(c(C(F)(F)F)n2n1)CCc1ccccc1-3)N1CCCC1 | 140 | 93 | nt | -2
CCC(CC)NC(=O)c1ccc(OC)cc1OC | 99 | 87 | nt | -12
Cc1ccn2c(=O)cc(COc3ccc(NC(=O)c4ccccc4F)cc3)nc2c1 | 84 | 88 | 97 | nt
COc1ccc(S(=O)(=O)N(CC(=O)N2CCc3ccccc3C2)c2ccc(C)cc2)cc1 | 89 | 86 | 106 | -37
CC(C)Oc1ccc2ccc(=O)oc2c1 | 101 | 93 | 102 | 4
CC1CCCCC1N1CCC(CNC(=S)Nc2cccc(Cl)c2)C1 (stereo not drawn) | 109 | 68 | 108 | nt
O=C(CCCn1c(=O)[nH]c2ccsc2c1=O)N1CCN(c2cccc(C(F)(F)F)c2)CC1 | 97 | 98 | 103 | -13
COC(=O)C1=C(C)NC2=C(C(=O)CC(c3ccc(OC)c(OC)c3)C2)C1c1cccc(Br)c1 (stereo not drawn) | nt | nt | 105 | -12
CCN1CCN(CCCNC(=O)c2ccc3c(c2)sc2nc(-c4ccc(C)cc4)cn23)CC1 | 138 | 89 | 109 | nt
Cc1ccc(C)c(NC(=O)C(=O)NCCc2csc(-c3ccc(C(F)(F)F)cc3)n2)c1 | 101 | 88 | 96 | nt
Cn1cc(CC(=O)NCCCN2CCOCC2)c2ccccc21 | 94 | 92 | 100 | nt
CCOC(=O)c1cnn(-c2cccc(C)c2)c1C1CCNCC1 | 86 | 91 | 109 | -24
CN1CCC(OC(=O)c2cc3ccccc3o2)CC1 | 84 | 98 | nt | -3
C=CCNC(=O)c1cc2cc(Cl)ccc2o1 | 99 | 90 | 103 | -8

Rewritten with two lines to a compound: 2 of the compounds above
Values run as follows: Sa growth inh, Sa growth inh second temp, GIV Gai3 FP, HCMV NEC inh
> Cc1ccc(C)c(NC(=O)C(=O)NCCc2csc(-c3ccc(C(F)(F)F)cc3)n2)c1
 : 101, 88, 96, nt
> Cn1cc(CC(=O)NCCCN2CCOCC2)c2ccccc21
 : 94, 92, 100, nt

2 compounds from above, limited to GIV Gai3 FP.
Compound | GIV Gai3 FP
Cn1cc(CC(=O)NCCCN2CCOCC2)c2ccccc21 | 100
CCOC(=O)c1cnn(-c2cccc(C)c2)c1C1CCNCC1 | 109

Going on with the list:
SMILES | Sa growth inh | Sa growth inh second temp | GIV Gai3 FP | HCMV NEC inh
O=C(Nc1c(C(=O)Nc2ccc(F)cc2)oc2ccccc12)c1ccccc1F | 109 | 71 | 107 | -16
CC(C)(C)C(=O)OC1OCCOC1NC(=S)N1CCCC1 (stereo not drawn) | 100 | 103 | nt | -10
Cc1ccc(NC(=O)C(=O)NCCc2csc3nc(-c4ccccc4C)nn23)cc1Cl | 102 | 90 | 100 | nt
O=C(Cn1c(=O)oc2cc(S(=O)(=O)N3CCCC3)ccc21)NCc1ccccn1 | 97 | 86 | 100 | 4
COc1ccc(OCC(O)Cn2nc(C)cc2C)cc1 (stereo not drawn) | 104 | 79 | 102 | nt
CCN(CC)S(=O)(=O)c1ccc2c(c1)nc(CN(C)S(=O)(=O)c1ccccc1)n2C | nt | nt | 107 | -20
N#Cc1ccc(C(=O)NCc2ccc3c(c2)CCN3C(=O)c2ccc(F)cc2)cc1 | 140 | 95 | 107 | nt
FC(F)(F)c1cccc(-n2cnnn2)c1 | 78 | 85 | 100 | nt
CCOc1ccc(-c2nc(CNC(=O)NC3CCCCC3)c(C)o2)cc1 | 91 | 99 | 108 | nt
Cc1c(OC(C)C(=O)O)ccc2c3c(c(=O)oc12)CCCC3 (stereo not drawn) | 100 | 81 | 93 | -17
CCc1ccc(S(=O)(=O)Nc2cccc(-c3ccc(N4CCC(C)CC4)nn3)c2)s1 | 106 | 98 | 105 | nt
NC(=O)c1cnn(-c2ccc(S(N)(=O)=O)cc2)c1NC(=O)c1c(F)cccc1F | 84 | 88 | nt | -14
CC(NC(=O)C1CC1)C(c1cccs1)N1CCN(Cc2ccccc2)CC1 (stereo not drawn) | 98 | 93 | 104 | -12
CCOC(=O)c1cc2c(=O)n3ccccc3nc2n(CCCOC)c1=NC(=O)c1c(-c2c(F)cccc2Cl)noc1C | 98 | 90 | 100 | -9
CCCNC(=O)C1CCCN(c2nnc(N3CCCC3=O)s2)C1 (stereo not drawn) | 94 | 85 | 100 | -22
Cc1ccc(S(=O)(=O)N2CCCC(c3nc(-c4ccccc4Br)no3)C2)cc1 (stereo not drawn) | nt | nt | 99 | -17
CN(C)S(=O)(=O)n1ccnc1 | 108 | 99 | 112 | 21
O=C(c1cc2cccnc2n(Cc2ccccc2)c1=O)N1CCN(Cc2ccccc2)CC1 | nt | nt | 102 | -4
Cc1cccc(CS(=O)(=O)c2ncn[nH]2)c1 | nt | nt | 103 | -16
CCOC(=O)N1CCC(NC(=O)c2ccc(CS(=O)(=O)c3ccccc3C)o2)CC1 | 94 | 86 | 106 | 2
CCOC(=O)c1cnc(-c2ccccc2)nc1N1CCOCC1 | 93 | 82 | 109 | -3
CC(C)CCNC(=O)C1CCCN(S(=O)(=O)c2ccc3c(c2)CC(C)N3C(=O)C2CC2)C1 (stereo not drawn) | 98 | 93 | 110 | 3
COC(=O)c1ccc(COC(=O)c2ccco2)cc1 | 109 | 96 | 106 | -15
CCOc1ccc(S(=O)(=O)N(CC(=O)NC2CC2)c2ccccc2)cc1 | 99 | 93 | 101 | nt
c1ccc(Nc2nc3nonc3nc2Nc2ccccc2)cc1 | -1.6* | -0.8* | nt | 3
Other records follow:
SMILES | Sa growth inh | Sa growth inh second temp | GIV Gai3 FP | HCMV NEC inh
COc1cccc(NS(=O)(=O)c2cc(-c3ccno3)oc2C)c1 | nt | nt | 111 | 3
Cc1cc(Cl)ccc1OCc1nc(-c2ccc(-n3cccc3)cc2)no1 | 101 | 101 | 104 | -10
Cc1cc(C)cc(OC(=O)c2cc(-c3ccc(Cl)cc3)on2)c1 | 96 | 90 | 98 | -7
CC(=O)Nc1ccc(NC(=O)[C@@H](NC(=O)c2ccc(F)cc2)C(C)C)cc1 | 94 | 88 | nt | -10
O=C(c1ccc(CS(=O)(=O)c2c(Cl)cccc2Cl)o1)N1CCN(Cc2ccccc2)CC1 | 92 | 77 | 102 | nt
Cc1cccc(NC(=S)N(C)C2CCCCC2)c1 | 109 | 88 | nt | -15
CCn1c(=O)c(=O)n(CC)c2cc(N3CCCCC3)c(NC(=O)c3ccc(Cl)cc3)cc21 | 99 | 95 | 107 | 63*
Cc1ccc2nc(NS(C)(=O)=O)sc2c1 | 124 | 101 | 105 | -17
CC1=C(C(=O)Nc2ccccc2)C(c2cccnc2)n2nc(SCc3ccccc3Cl)nc2N1 (stereo not drawn) | 112 | 102 | 104 | -84
COC(=O)c1sccc1S(=O)(=O)Nc1cccc(F)c1 | nt | nt | 107 | -14
Cc1cccc(-c2nnn3c2nc(NCCC(C)C)c2ccccc23)c1 | 116 | 87 | 102 | -36
CCOC(=O)c1oc2ccccc2c1COC(=O)CCC(=O)c1ccccc1 | 104 | 95 | nt | -13
Cc1cc(C)n(-c2ccc(CC#N)cc2)n1 | 97 | 100 | nt | -14
CCOc1ccc(C(=O)Nc2c(N)nc(SC)[nH]c2=O)cc1 | 97 | 84 | 104 | -31
COc1ccc(N2C(=O)/C(=C\c3ccc(O)c(Br)c3)C(=O)NC2=S)cc1 | nt | nt | 104 | -22
O=C(Cn1c(=O)c2cccn2c2ccccc21)NC1CCCc2ccccc21 (stereo not drawn) | 113 | 89 | 110 | nt
CCOc1ccccc1NC(=O)NC(Cc1ccc(OC)cc1)Cc1ccc2c(c1)OCO2 (stereo not drawn) | nt | nt | 105 | -16
COc1cccc(-c2cc(C(=O)NC3CC3)[nH]n2)c1 | 95 | 77 | 103 | nt
C(=N/n1cnnc1)/c1ccc(N2CCCCC2)cc1 | 111 | 97 | 107 | -10
N/C(CCS(=O)(=O)c1ccc(Cl)cc1)=N\O | 96 | 88 | 97 | 2
N#CC(C#N)C(CC(=O)c1cccs1)c1ccccc1 (stereo not drawn) | 73 | 64 | 102 | 1
CCN(CC)S(=O)(=O)c1cc(C(=O)O)ccc1OC | 96 | 87 | 101 | -5
CCCc1nnc(SCc2nnc(-c3ccccc3)o2)o1 | 92 | 75 | 104 | 13
Cc1[nH]c(C(=O)N2CCC(CC(=O)NC(C)CCc3ccccc3)CC2)c(C)c1C (stereo not drawn) | nt | nt | 103 | 3
O=C1CC(c2cccc(O)c2)c2cc3c(cc2N1)OCO3 (stereo not drawn) | 102 | 88 | 107 | -4
Next records follow.
SMILES | Sa growth inh | Sa growth inh second temp | GIV Gai3 FP | HCMV NEC inh
NC(=O)c1ccc(C(F)(F)F)cn1 | 86 | 93 | nt | -21
CCOc1ccc(NS(=O)(=O)c2ccc3[nH]cc(C(=O)N4CCCCC4)c(=O)c3c2)cc1 | 89 | 98 | 94 | 0
O=S(=O)(NNc1nccc(-c2cccnc2)n1)c1cccc(C(F)(F)F)c1 | 95 | 92 | 106 | 4
O=C1CCCN2N=C(SCc3ccc(Br)cc3)SC2=N1 | 90 | 84 | 98 | -23
CCCc1nn2cc(-c3ccc(C)c(C)c3)nc2s1 | 90 | 100 | 102 | 15
CCN1CCN(C(=O)c2cn(-c3ccccc3)nc2-c2ccccc2)CC1 | 96 | 96 | nt | -13
CCn1nc(-c2cccc(Br)c2)ccc1=O | 104 | 89 | 101 | -31
O=C(NC(CO)C(=O)O)c1cncc(O)c1 (stereo not drawn) | 93 | 82 | nt | -17
COc1cc(NC(=O)CSc2nc3nc(C)c(Cc4ccc(C)cc4)c(C)n3n2)cc(OC)c1OC | 120 | 91 | 102 | nt
O=C(NCC1CCCO1)c1ccc(CS(=O)(=O)c2cccc(C(F)(F)F)c2)o1 (stereo not drawn) | 78 | 89 | 105 | -7
COC(=O)c1ccc2c(c1)N(C)S(=O)(=O)c1cnc(SC)nc1-2 | 104 | 97 | 104 | 3
Cc1ccc(CSc2nnc(-c3ccccc3N)c(=O)[nH]2)cc1 | 121 | 82 | 108 | -15
CC(C)C1Nc2ccc(C(=O)N3CCN(c4ccccn4)CC3)cc2NC1=O (stereo not drawn) | 105 | 101 | 107 | -7
Cc1ccc(Nc2cc(C)ncn2)cc1 | nt | nt | 103 | 6
Cc1ccc(-n2c(=O)c3c(c4cc(C)ccc4n3C)n(CC(=O)Nc3ccc(F)cc3)c2=O)cc1 | 95 | 95 | 107 | nt
O=c1c(F)cn(CC2CC(c3ccccc3)=NO2)c(=O)n1CC1CC(c2ccccc2)=NO1 (stereo not drawn) | 92 | 88 | 99 | 5
CC(=O)Nc1ccccc1-c1nc2ccccc2n(CCOc2ccccc2)c1=O | nt | nt | 108 | 19
Cc1cc(C(=O)Cn2ccsc2=N)c(C)n1C1CC1 | 103 | 89 | nt | 1
Cc1cccc(N2CCN(Cc3cccn3-c3nnc(N4CCC(C(=O)O)CC4)s3)CC2)c1C | nt | nt | 105 | 7
CC1CN(C(=O)COC(=O)c2ccc(S(=O)(=O)C(F)F)cc2)CC(C)O1 (stereo not drawn) | 90 | 92 | nt | -12
Cc1noc(C)c1CSc1nnc(-c2ccccc2)o1 | 82 | 88 | nt | -16
CC12CC3(C)CC(C)(C1)CC(C(=O)NC(C)(C)CO)(C2)C3 | 65 | 107 | 98 | -7
Cc1cc[n+](CCC(=O)O)c2ccccc12 | 112 | 87 | nt | -23

Screening results deposited in PubChem BioAssay by ICCB-Longwood Screening Facility, Harvard Medical School.
